nsP2pro inh: inhibitors of chikungunya virus nsP2 protease; FRET peptide cleavage, nsP2pro, fluorescence 1 h; 31,000 tested, 1.1% active; AID 1964107; Potency, µM (highest dose often 24.9 µM), without a hit: top-dose activity change, negative = inhibition, hits mostly inhibitors; Q8JUX6; active means well fitted inhibition curve with a large enough effect; inconclusive means small, poorly fitted or top-dose-only effect; inactive means no such curve, though single readings can be large or run the other way; also: nearly all actives have a fitted effect of over 60% in size; a reference inhibitor and vehicle were the controls
Numbers without * were called inactive; i = inactive; u = inconclusive; & = joins results of further samples; ! = not active in a repeat; [ ] = remark or other dose. % is scaled to controls: 0 for no effect and ±100 for the full control effect; potency is read from the fitted curve at half-maximal effect. This is a subset; count on the stated rates, not on these rows.

mol,nsP2pro inh
COc1ccc(NC2=C(c3ccc(C(F)(F)F)cc3)C(=O)c3ccccc32)cc1,-21.6%
COc1ccccc1-n1c(SCC(=O)Nc2ccc(C)cc2)nc(O)cc1=O,-14.7%
O=C(/C=C/C=C/c1ccc2c(c1)OCO2)N1CCCCC1,-0.5%
O=C(NCCn1ccc2ccccc21)c1ccc(Cl)cc1,-2.9%
Cn1c2cc(B(O)O)sc2c2cnn(Cc3c(F)cccc3Cl)c(=O)c21,i
COc1ccc(C(=O)c2sc3nc(-c4ccc(C)cc4)cc(C(F)(F)F)c3c2N)cc1,-18.1%
NC(N)=NCc1cccc(I)c1,-0.7%
Cc1ccc2c(=O)cc(C(=O)Nc3ccc(S(=O)(=O)Nc4onc(C)c4C)cc3)oc2c1C,0.2%
C=C1CCCC2(C)CCC(C(C)(C)OC3OC(C)C(O)C(O)C3OC(=O)/C(C)=C\C)CC12 (stereo not drawn),-11.8%[10 µM]
c1ccc2c(c1)CCCC2C1=NCCN1 (stereo not drawn),-0.2%

By substructure, those above with a halogen
mol,nsP2pro inh
COc1ccc(NC2=C(c3ccc(C(F)(F)F)cc3)C(=O)c3ccccc32)cc1,-21.6%
O=C(NCCn1ccc2ccccc21)c1ccc(Cl)cc1,-2.9%
Cn1c2cc(B(O)O)sc2c2cnn(Cc3c(F)cccc3Cl)c(=O)c21,i
COc1ccc(C(=O)c2sc3nc(-c4ccc(C)cc4)cc(C(F)(F)F)c3c2N)cc1,-18.1%
NC(N)=NCc1cccc(I)c1,-0.7%

The listing continues:
mol,nsP2pro inh
O=C(Cn1c(=O)oc2cc(S(=O)(=O)N3CCCCC3)ccc21)NCc1ccc(Cl)cc1,-5.0%&48.0%
Cc1ccc(C)n1-c1c(C(=O)NCCCN2CCN(c3ccc(F)cc3)CC2)sc2ncccc12,-13.9%
C=C1C(=O)O[C@@H]2C[C@]3(C)[C@@H](CCC(C)O)[C@@H]3C[C@H]12 (stereo partly drawn),u
Clc1ccc(OCc2nc3ccccc3n2Cc2ccccc2)c(Cl)c1,-18.2%
COc1cc(C(C)C)c(Oc2cnc(N)nc2N)cc1I,18.5%
CC1=CC(=O)CC(C)(C)C1CCC(C)OC1OC(COC(=O)c2cc(O)c(O)c(O)c2)C(O)C(O)C1O (stereo not drawn),14.3%[10 µM]
Cn1c2cc(S(C)(=O)=O)sc2c2cnn(Cc3ccccc3F)c(=O)c21,-0.9%
COCCOc1nc(-c2ccc(Cl)c(Cl)c2)n(-c2ccc(NC(=O)CCl)cc2)n1,-21.9%
C=CC(C)(O)CC/C=C(\C)C(=O)OC1C(O)C(CO)OC(OC(=O)C23CCC(C)(C)CC2C2=CCC4C5(C)CCC(OC6OC(COC7OCC(OC(C)=O)C(O)C7OC7OC(COC(C)=O)C(O)C(O)C7O)C(O)C(O)C6O)C(C)(C)C5CCC4(C)C2(C)C(O)C3O)C1OC1OCC(OC2OCC(O)C(OC3OCC(O)C(O)C3O)C2O)C(O)C1O (stereo not drawn),-1.1%[2.68 µM]
Cn1cc(S(=O)(=O)c2ccc(Cl)cc2)c(=O)c2cc(F)c(N3CCOCC3)cc21,-3.2%

Next entries follow:
mol,nsP2pro inh
Cc1c(Cl)cccc1NC(c1ccc(F)cc1)c1nnc(-c2ccccc2)o1 (stereo not drawn),37.8%
COc1ccc(CNC(=O)[C@@H]2Cc3nc[nH]c3CN2C(=O)NC(C)C)cc1,1.2%[39.2 µM]
CCOc1ccc(NC(=O)Cn2c(=O)n(Cc3ccco3)c(=O)c3ccc(C(=O)NC4CCCC4)cc32)cc1,2.6%
CNC(=O)c1cn2c(n1)CN([S+](C)(=O)[O-])CC2,-5.2%[39.2 µM]
Cc1ccc(-n2nc3c(=O)n(CC(=O)NCc4ccco4)nc(C)c3c2C)cc1,-30.2%
CC1CCc2c(sc(NC(=O)Cn3nnc(-c4ccc(C(F)(F)F)cc4)n3)c2C#N)C1 (stereo not drawn),-22.1%
Cc1ccsc1CN1CCc2nc(N3CCOCC3)[nH]c(=O)c2CC1,-12.1%
COc1ccc(C(=O)N2CCC3(CC2)CC(N(Cc2ccccc2)C2CC2)CCO3)cn1 (stereo not drawn),0.3%
Cc1ccc(C)c(CN2CCC(CNC(=O)Nc3ccc(Br)cc3F)CC2)c1,12.1%
O=C(O)c1ccc(CSc2nnc(-c3cccc(S(=O)(=O)NC4CCCC4)c3)n2-c2ccc(F)cc2)cc1,0.6%

(list continues)
mol,nsP2pro inh
CN(C)CCN(C)[C@H]1[C@@H]2OC[C@@H](O2)[C@@H](NC(=O)Nc2cccc(C#N)c2)[C@@H]1O,1.1%[39.2 µM]
O=C(COc1cccc(Cl)c1)N1CCN(CCc2ccncc2)CC1,-10.6%
CCC(=O)NC[C@@H]1C[C@H]1c1cccc2c1CCO2,-10.2%
COc1ccc(-c2ccc3ncnc(NCc4cccs4)c3c2)cc1OC,i
C[C@@H]1CN(c2c(F)c(F)c3c(=O)c(C(=O)O)cn(C4CC4)c3c2F)C[C@H](C)N1,1.3%[5.1 µM]
Cc1nc(C2CC(O)C2)cc(N2CCN(c3nc4ccccc4s3)CC2)n1 (stereo not drawn),-0.8%
CC(=O)Nc1cccc(Nc2ncnc(N3CCC(OCc4ccc(OC(F)(F)F)cc4)CC3)n2)c1C,-3.7%
COc1cccc(CNc2ccc(S(=O)(=O)Nc3ccc(C)nc3)cc2)c1O,2.7%
O=C(O)c1ccc(-c2ccc3ncnc(NCc4nccs4)c3c2)o1,11.2µM*
FC(F)(F)Oc1ccc2c(c1)NC(c1ccncc1)=NC(c1cccs1)=N2,-2.9%

Continuation:
mol,nsP2pro inh
C/C=C(\C)C1C(C)=CC2CCC(OS(=O)(=O)O)C(C)C2C1/C=C/C=C/C(=O)O (stereo not drawn),u
Cc1cccc2c1NC(=O)/C2=C/c1cc(Cl)c(O)c(Cl)c1,i
OC[C@H]1O[C@@H](Oc2ccc(O)cc2)[C@H](O)[C@@H](O)[C@@H]1O,u
O=C(c1ccco1)N1CCN(C(=O)c2cnn(-c3cccc(F)c3)c2C2CCNCC2)CC1,-39.6%
O=C(C1CC1)N1CCC2(CC1)NC(=O)N(c1cccc(Cl)c1)N2,i
O=C([C@@H]1C[C@H](F)CN1C(=O)NCc1ccc(OC(F)(F)F)cc1)N1CCCCC1,i
CC(C)c1cccc(C(C)C)c1NC(=O)Nc1ccc(Sc2ccc([N+](=O)[O-])cc2)cc1,-1.9%
Cc1c(C(=O)N2CCCCCC2)c(S(=O)(=O)N(Cc2ccccc2)C(C)(C)C)c(C)n1C,-22.4%
COc1cc(/C=C/c2cn(-c3ccc(C(=O)O)cc3)nc2/C=C/c2ccc(O)c(OC)c2)ccc1O,211.8%[activator]
O=C(c1ccc(-c2cncnc2)cc1)N1CCC(N[S+](=O)([O-])c2cccc(C(F)(F)F)c2)CC1,-5.9%

Carrying on.
mol,nsP2pro inh
O=C(O)c1ccc(CN2CC(COc3ccccc3)C3(C2)CN(c2ccccc2)C3)cc1 (stereo not drawn),-22.2%[39.2 µM]
C[C@@]12C[C@]3(O)O[C@H](O1)[C@]1(COC(=O)c4ccccc4)[C@H]3C[C@@]12O[C@@H]1O[C@H](CO)[C@@H](O)[C@H](O)[C@H]1O,u
COc1ccc(N2CCN(C(=O)c3cc4c(s3)-c3ccccc3S(=O)(=O)C4)CC2)cc1,-14.1%
C#CCOc1ccc(-c2no[n+]([O-])c2C#N)cc1,i
O=C1NCCCCCCN(C(=O)c2ccccn2)[C@H]2CCCC[C@@H]12,4.1%
O=C(O[C@H]1[C@@H]2C=CO[C@@H](O[C@@H]3O[C@H](CO)[C@@H](O)[C@H](O)[C@H]3O)[C@@H]2[C@@]2(CO)O[C@@H]12)c1ccc(O)c(O)c1,u
Cc1cccc(-n2cnc3cc(C(=O)N4CCCC(C(C)C)C4)ccc32)c1 (stereo not drawn),i
COc1ccc(CNC(=O)CSc2ncc3c(n2)-c2ccc(Cl)cc2N(Cc2ccc(F)cc2)S3(=O)=O)cc1OC,-13.3%
CC(=O)OCC1=C(C(=O)O)N2C(=O)[C@@H](N)[C@H]2SC1,-6.8%
CCN1CCN(c2cc3c(cc2F)c(=O)c(S(=O)(=O)c2ccccc2)cn3C)CC1,-16.8%

(continued)
mol,nsP2pro inh
Cc1ccc(CSc2ncc(Cl)c(C(=O)NCc3ccccc3)n2)cc1,23.7%
O[C@@H]1C[C@@H](c2nc(Cc3ccc(F)cc3Cl)no2)N(Cc2ccc(OC(F)(F)F)cc2)C1,i
O=C(CSc1ncc2c(n1)-c1cc(Cl)ccc1N(Cc1ccccc1F)S2(=O)=O)Nc1cccc(C(F)(F)F)c1,-12.1%
CC(=O)NC(c1ccco1)c1cc(Cl)c2ccc(N(C)C)nc2c1O (stereo not drawn),u
N#Cc1cccc(Nc2ncnc3c2cnn3-c2cccc(Cl)c2)c1,-27.0%
O=C(NCCc1ccc(F)cc1)c1cc(-c2ccccc2)c2nncn2n1,1.2%
COc1ccc(C(=O)N2CCN(c3cc(-c4cccs4)[nH]n3)CC2)cc1OC,-1.8%
COc1ccc(CNC(=O)CSc2nc3ccccc3nc2Cc2ccccc2)cc1,-16.9%
C=CC(=O)N1C/C(=C\c2ccc([N+](=O)[O-])cc2)C(=O)/C(=C/c2ccc([N+](=O)[O-])cc2)C1,3.51µM*!
COc1ccc(CCNC(=O)c2c[nH]n3c(=O)c(Cc4ccccc4Cl)c(C)nc23)cc1OC,73.2%[activator]

Remaining list, next part:
mol,nsP2pro inh
Cc1ccc(Nc2nc(-c3ccncc3)nc3ccccc23)cc1F,i
CCCCCCCCC=CCCCCCCCC(=O)NCCOC(=O)CC(C(=O)O)S(=O)(=O)O (stereo not drawn),12.7%
Oc1ccc(Nc2nc3ccccc3n3cnnc23)cc1,-10.1%
COc1ccccc1S(=O)(=O)Nc1cnccc1C(=O)Nc1nc(-c2ccccc2)cs1,i
CCOC(=O)c1c(Oc2ccc(C(C)=O)cc2)nnc(-c2ccccc2)c1-c1ccccc1,-10.1%
CCS(=O)(=O)Nc1ccc(C(=O)NCc2cc3n(n2)CCNC3)cc1,i
N#Cc1cccc(NC(=O)C2CCN(S(=O)(=O)c3ccc4c(c3)CCCN4C(=O)C3CCC3)CC2)c1,-20.8%
CCCN1CCc2nc(N3CCN(CC)CC3)ncc2C1,56.7%[activator]
CC(=O)OC1CC(OC2C(O)CC(OC3C(O)CC(OC4CCC5(C)C(CCC6C5CCC5(C)C(C7=CC(=O)OC7)CCC65O)C4)OC3C)OC2C)OC(C)C1O (stereo not drawn),-7.3%
O=C(O)CCC(=O)N1Cc2[nH]cnc2C[C@H]1c1nc(-c2ccc(OC(F)(F)F)cc2)no1,2.9%

Following part
mol,nsP2pro inh
COC1CC(=O)C23C(=O)NC(CC(C)C)C2C(C)C(C)=CC3/C=C(\C)CCC(O)C1O (stereo not drawn),-7.0%[10 µM]
Cc1cc(NC(=O)c2ccc(C)c(Nc3nccc(-c4cccnc4)n3)c2)cc(-n2cnc(C)c2)c1,i
O=C(c1ccc(=O)[nH]n1)N1CCc2ncnc(N3CCOCC3)c2CC1,-8.6%
COc1cccc([S+](=O)([O-])N2CCC3(CC(C)=NO3)C2)c1 (stereo not drawn),-9.6%[39.2 µM]
CC(=O)O[C@H]1C[C@@](O)(C(C)C)C2[C@@H](OC(=O)c3ccc(O)cc3)C[C@@]3(C)O[C@H]3C[C@]21C (stereo partly drawn),7.8%[10 µM]
Cc1cccn2c(Nc3ccc4c(c3)OCCO4)c(-c3ccc(Br)o3)nc12,u
CCOc1ccc(NS(=O)(=O)c2ccc3c4c(cccc24)C(=O)N3)cc1,7.3%
COc1cc(/C=C\C(=O)N2CCN(CC(=O)N3CCCC3)CC2)cc(OC)c1OC,-8.2%
CC(=O)Nc1sc2c(c1-c1nc3ccccc3s1)CNC2,u
CC(=O)N1CCN(CCOc2ccc(C3CCN(C4=Nn5c(nnc5C(F)(F)F)CC4)CC3)cc2)CC1,-1.5%

Further entries follow.
mol,nsP2pro inh
NC(=O)[C@H]1C[C@@H](O)[C@H](O)[C@H]2[C@@H]1SC(=Nc1ccc(Cl)cc1)N2CC1CCCCC1,3.8%
Oc1cccc(Nc2ncnc3sc4c(c23)CCCC4)c1,u
CC(C)CN1C(=O)CCc2cc(NC(=O)C3CCC3)ccc21,-11.3%
O=C1OC(/C=C/c2ccccc2)=NC/1=C\c1cccnc1,7.8%
COc1cccc(CNC(=O)CC(c2ccc(C)cc2)N2Cc3ccccc3C2=O)c1 (stereo not drawn),-8.7%
CC(C)(C)OC(=O)n1c2ccsc2c2cnn(Cc3ccccc3F)c(=O)c21,i
CC1CCN(CC2CCCCCN2C(=O)Cc2ccccc2)CC1 (stereo not drawn),i
O=C(C1CCCN1C(=O)C1CC1)N1CCCC(c2nc3ncccc3[nH]2)C1 (stereo not drawn),2.3%
CCOc1ccc(CCNC(=O)c2cc3c(s2)CCC3)cc1OCC,-5.3%
COc1c(Cl)cc(C(=O)Nc2cccc(-c3nc4ccccc4[nH]3)c2)cc1Cl,6.5%

The list goes on.
mol,nsP2pro inh
CN(C)CCN1CC2(CCN(C(=O)CCCS(N)(=O)=O)CC2)OC1=O,-4.3%
O=C(NCC1CC1)c1nc2c(o1)CCN(CCCc1ccccc1)CC2,10µM*
Cc1cccc(NC(=O)COC(=O)CCCC2=NS(=O)(=O)c3ccccc3N2)c1,-7.1%
COc1ccc(-c2csc(=Nc3ccccc3)n2CCO)cc1F,-26.8%
Cc1cccc(-c2noc(-c3ccccc3NC(=O)C3CC(=O)N(c4ccccc4C)C3)n2)c1 (stereo not drawn),-16.5%
O=C(c1ccccc1O)N(Cc1ccco1)Cc1cccs1,u

Screening data: PubChem, National Center for Advancing Translational Sciences (NCATS)
